# From PubChem BioAssay
# MgrA-DNA mod – S. aureus MgrA activity modulators, primary screen, biochemical, S. aureus Newman, fluorescence polarization; 84,000 compounds, 0.13% hits; MgrA-DNA binding; inhibition, %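 (about 10 µg/mL by stock and volumes)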; AID 602314, 2012;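 active = above 50% in either of two replicates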;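 note: 0% = protein plus DNA without compound and 100% = DNA alone without protein; higher means less MgrA bound to DNA so lower polarization; one replicate is shown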
# Sa helicase inh – inhibitors of S. aureus replicative helicase, primary screen, biochemical, fluorescence unwinding readout | AID 485395, 2010 | 120,000 compounds, 0.05% hits | inhibition, %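 (tested at about 80 µM)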 | purified S. aureus helicase, fluorescence unwinding assay; about half of the hits fall short of the stated cut | replicative DNA helicase (DnaC/DnaB), Staphylococcus aureus;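 active = both duplicates at 50% or more, or one of them with a favoured structure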;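 note: 0% = mean of negative control wells and 100% = mean of positive control wells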
# An asterisk follows results filed as active; · = no result given; & = joins results of further samples. An excerpt; rates above refer to the full screens.
SMILES,MgrA-DNA mod,Sa helicase inh
O=C(CSc1nc2c(c(C(F)(F)F)n1)CCc1ccccc1-2)N1CCCCC1,1.3,8.0
CCC(=O)c1ccc(N2CCCCC2)c(F)c1,·,-6.0
CC(C)CCNC(=O)C1(C)CCC(=O)N1Cc1ccccc1Cl (configuration not stated),·,-39.0
CC1CN(C)C(C)c2c1oc1ccc(N)cc21 (configuration not stated),-0.1,5.0
Cn1c(SCc2cc(F)cc(F)c2)nnc1-c1ccc2nonc2c1,1.9,·
Cc1cc(NC(=O)NC(=O)c2ccccc2)no1,2.1,4.0
CCN(CC)Cc1c(CC(C)C)oc(C)c1C(=O)O,-7.4,9.0
CN(Cc1ccccc1)C(=O)C1CCN(c2nnc(-n3cccc3)s2)CC1,0.7,4.0
O=C1CCCC(O)=C1C=NCCCn1ccnc1,·,-68.0
O=C(NN1C(=O)c2cccc3cccc(c23)C1=O)c1ccn[nH]1,1.1,·
CC(=O)Nc1ccc(C2Nc3ccccc3C(=O)N2C2CCCCC2)cc1 (configuration not stated),·,-28.0
O=C(c1ccco1)n1c(=S)nc2ccccn21,6.2,13.0
O=S(=O)(NCc1ccccc1Cl)c1ccc2nc(-c3ccccc3)[nH]c2c1,1.6,6.0
Cc1ccc(C(=O)CN2C(=O)c3ccccc3S2(=O)=O)cc1,-2.2,·
Cc1c(O)c2cnn(-c3ccccc3)c2[nH]c1=O,-0.6,·
CC(=O)Nc1ccc(NC(=O)C(C)OC(=O)c2c3c(nc4ccccc24)CCN(C)C3)cc1 (configuration not stated),·,23.0
COCC(C)NCc1cccc2ccccc12 (configuration not stated),1.8,-15.0
Cc1cccc(-n2c(C)cc(C=NO)c2C)c1,1.2,14.0
O=C(CSc1nnc(-c2cccc(Cl)c2)o1)NC1CCCCC1,·,8.0
COC(Cn1c(-c2ccccc2)cc(C2=C(O)CC(C)(C)CC2=O)c1-c1ccccc1)OC,9.2,12.0
CC(O)c1nc2ccccc2[nH]1 (configuration not stated),1.8,·
CCCN(CCC)C(=O)c1c[nH]c2ccc(S(=O)(=O)Nc3ccc(CC)cc3)cc2c1=O,0.2,9.0
CCOC(=O)c1oc2ccc(Br)cc2c1COC(=O)CCn1c(C)csc1=O,·,11.0
O=C(Cn1ncc2c3ccccc3n(Cc3ccccc3)c2c1=O)Nc1ccc(F)cc1,·,3.0
N#CC1=C(N)C(C#N)(C#N)[C@@H](c2cccc(Cl)c2)[C@@H]2CSCC=C12,-0.5,10.0
CCn1c(=NC(=O)CSCC(=O)Nc2nc(-c3ccccc3)cs2)sc2ccccc21,-0.5,12.0
O=C1CSC(=O)N1CNc1cc(Cl)ccc1Cl,-1.7,5.0
Cn1nc(-c2ccc(S(=O)(=O)NCc3cccs3)s2)cc1C(F)(F)F,-0.8,·
CCOC(=O)c1cnc2cc(-c3ccccc3)[nH]n2c1=O,-1.1&-1.4,8.0
O=C(Nn1cnnc1)c1cccc(C(F)(F)F)c1,-0.3,·
Fc1c(F)c(Oc2ccccc2)c(F)c(F)c1Oc1ccccc1,2.5,-10.0
c1coc(CNc2ncnc3sc4c(c23)CCCC4)c1,-0.8,18.0
Cc1cccc(C(=O)Nc2ccccn2)c1,·,16.0
CC1=Cn2c(=O)c3ccccc3c(=O)n2C1,0.8,·
Cc1nc2cc(NCc3ccccc3O)ccc2n1Cc1ccccc1,·,4.0
CCC(C)c1ccc(N2C(=O)C=CC2=O)cc1 (configuration not stated),10.8,·
CC1CCCN(C(=O)c2cccc3c2SCCC3=O)C1 (configuration not stated),·,13.0
O=C(OCc1cccs1)c1ccco1,0.5,-20.0
COC(=O)c1c(NC(=S)NCc2ccco2)sc2c1CCC(C)C2 (configuration not stated),-2.6,8.0
CCOC(=O)CSc1c(-c2cccs2)[nH]c2ccccc12,-1.2,8.0
CCCc1c(C)nc(N)c(C#N)c1-c1ccc(OC)c(OC)c1,-1.2,3.0
CCOc1ccc(N(C)S(=O)(=O)c2ccc3[nH]cc(C(=O)NCC4CCCO4)c(=O)c3c2)cc1 (configuration not stated),0.5,-13.0
CN(C)CCNC(=O)c1nc(-c2cccnc2)no1,-0.8,5.0
CC1CCc2nc(NC(=O)c3cc(=O)c4ccccc4o3)sc2C1 (configuration not stated),1.8,·
CCCOC(=O)CSC1=C(C#N)C(c2ccc(Cl)cc2)C(C(=O)OC)C(=O)N1 (configuration not stated),4.6,·

# Part of the list above, set out differently.
MgrA-DNA mod	Sa helicase inh	Structure
9.2	12.0	COC(Cn1c(-c2ccccc2)cc(C2=C(O)CC(C)(C)CC2=O)c1-c1ccccc1)OC
1.8	·	CC(O)c1nc2ccccc2[nH]1 (configuration not stated)
0.2	9.0	CCCN(CCC)C(=O)c1c[nH]c2ccc(S(=O)(=O)Nc3ccc(CC)cc3)cc2c1=O
·	11.0	CCOC(=O)c1oc2ccc(Br)cc2c1COC(=O)CCn1c(C)csc1=O
·	3.0	O=C(Cn1ncc2c3ccccc3n(Cc3ccccc3)c2c1=O)Nc1ccc(F)cc1
-0.5	10.0	N#CC1=C(N)C(C#N)(C#N)[C@@H](c2cccc(Cl)c2)[C@@H]2CSCC=C12
-0.5	12.0	CCn1c(=NC(=O)CSCC(=O)Nc2nc(-c3ccccc3)cs2)sc2ccccc21
-1.7	5.0	O=C1CSC(=O)N1CNc1cc(Cl)ccc1Cl
-0.8	·	Cn1nc(-c2ccc(S(=O)(=O)NCc3cccs3)s2)cc1C(F)(F)F
-1.1&-1.4	8.0	CCOC(=O)c1cnc2cc(-c3ccccc3)[nH]n2c1=O
-0.3	·	O=C(Nn1cnnc1)c1cccc(C(F)(F)F)c1
2.5	-10.0	Fc1c(F)c(Oc2ccccc2)c(F)c(F)c1Oc1ccccc1
-0.8	18.0	c1coc(CNc2ncnc3sc4c(c23)CCCC4)c1
·	16.0	Cc1cccc(C(=O)Nc2ccccn2)c1
0.8	·	CC1=Cn2c(=O)c3ccccc3c(=O)n2C1
·	4.0	Cc1nc2cc(NCc3ccccc3O)ccc2n1Cc1ccccc1
10.8	·	CCC(C)c1ccc(N2C(=O)C=CC2=O)cc1 (configuration not stated)
·	13.0	CC1CCCN(C(=O)c2cccc3c2SCCC3=O)C1 (configuration not stated)
0.5	-20.0	O=C(OCc1cccs1)c1ccco1
-2.6	8.0	COC(=O)c1c(NC(=S)NCc2ccco2)sc2c1CCC(C)C2 (configuration not stated)
-1.2	8.0	CCOC(=O)CSc1c(-c2cccs2)[nH]c2ccccc12
-1.2	3.0	CCCc1c(C)nc(N)c(C#N)c1-c1ccc(OC)c(OC)c1
0.5	-13.0	CCOc1ccc(N(C)S(=O)(=O)c2ccc3[nH]cc(C(=O)NCC4CCCO4)c(=O)c3c2)cc1 (configuration not stated)

# Additional results follow.
SMILES,MgrA-DNA mod,Sa helicase inh
OC(CNCCc1cccs1)COc1ccccc1 (configuration not stated),-0.7,·
CC12CCC(C1)C(C)(C)C2OCC(O)CN1CCN(c2cccc(C(F)(F)F)c2)CC1 (configuration not stated),·,14.0
Fc1c(F)c(C(F)(F)F)c(F)c2c1Oc1cc(Cl)c(Cl)cc1O2,-0.6,-19.0
Cc1cc(C(=O)COC(=O)c2ccc(O)cc2)c(C)n1CC1CCCO1 (configuration not stated),·,7.0
CCOCc1nnc(NC(=O)C2CC(=O)N(C(C)(C)C)C2)s1 (configuration not stated),-3.3,-2.0
O=C1Cc2ccccc2C(=O)N1c1cccc(Cl)c1,·,29.0
O=C1NC(=Nc2ccc(Br)cc2)SC1Cc1cccc2ccccc12 (configuration not stated),2.8,·
COc1ccccc1N1CCN(Cc2cc(=O)oc3cc(C)c(Cl)cc23)CC1,·,-2.0
CC1CC(CCC(=O)Nc2ccc(S(N)(=O)=O)cc2)C(=O)O1 (configuration not stated),-0.2,4.0
CSc1ccc(S(=O)(=O)Nc2ccc(N3CCOCC3)c(Cl)c2)cc1,-0.1,5.0
CCN1CCN(CCCNC(=O)c2cc3c(=O)[nH]c4ccc(C)cc4c3s2)CC1,·,9.0
CCC(=O)N1CCCc2ccccc21,-3.1,·
COc1cc2c(cc1OC)CC(C(=O)O)NC2 (configuration not stated),-3.0,-15.0
CCOC(=O)C1=C(C)NC(SCc2ccc(C(=O)O)cc2)=NC1c1ccc(OCC)cc1 (configuration not stated),0.3,2.0
COc1ccc(CCNC(=O)c2cn(C3CCCC3)c(=O)c3c2c2ccccc2n3C)cc1OC,1.1,13.0
Cc1cc(C(=O)Nc2cccnc2)no1,1.9,5.0
CC(NC(=O)/C=C/c1cccc2ccccc12)c1ccccc1 (configuration not stated),1.4,-12.0
O=C(O)c1ccc(COc2ccccc2/C=C2\NC(=O)N(Cc3ccccc3)C2=O)cc1,5.9,-4.0
COc1cccc(OCC(=O)Nc2ccc(OC(C)=O)cc2C(=O)O)c1,·,5.0
COc1cc(COc2ccc3c4c(c(=O)oc3c2)CCC4)cc(OC)c1OC,-0.3,-3.0
CN1CCN(C(=O)NCC23CC4CC(CC(C4)C2)C3)CC1,1.4,-15.0
Cc1ccc2nc(SC3CCCCC3=O)[nH]c2c1 (configuration not stated),·,8.0
Fc1ccc(CN2CCc3nc(Nc4ccc(F)cc4)ncc3C2)cc1,·,0.0
Cc1ccc(C)c(C(=O)CSc2nnc(-c3cccs3)n2CC2CCCO2)c1 (configuration not stated),·,2.0
CCN1C(=O)NC(c2ccccc2[N+](=O)[O-])C(C(=O)OCCc2ccccc2)=C1C (configuration not stated),11.2,·
CC(C)=NNC(=O)Nc1c(-c2c(Cl)cccc2Cl)noc1C,·,1.0
O=C(Nc1ncnc2sc3c(c12)CCCCC3)c1ccco1,-1.1,-3.0
CC1(C)C/C(=N\O)c2cc3c(nc2C1)CCCC3,0.2,-5.0
COc1cc(C(=O)Nc2nc3ccc(C)cc3s2)cc(OC)c1OC,·,6.0
CC(=O)NC1C(=O)N=C(SCC(=O)Nc2cccc3ccccc23)NC1=O (configuration not stated),·,-24.0
Cn1c(CC(=O)Nc2ccccc2F)nnc1SCC(=O)NC1=NCCS1,-4.2,8.0
CN(Cc1ccccc1)C(=O)c1ccccc1C(=O)N1CCN(c2ncccn2)CC1,·,11.0
CC1SCC(=O)N(CC(=O)Nc2ccccc2C(F)(F)F)C1=O (configuration not stated),·,22.0
O=C(Oc1ccccc1)c1ccc(CS(=O)(=O)c2ccc(C(F)(F)F)cn2)o1,-0.5,·
Nc1nonc1C(=O)N/N=C/c1ccccc1,·,29.0
CCOC(=O)c1sc2ncn(CC(=O)OCC(C)C)c(=O)c2c1C,·,7.0
COC(=O)C1CC(=O)N(c2ccccc2)C1 (configuration not stated),-0.1,9.0
Cc1nc(NCc2ccccc2)sc1C(=O)N(C)C,·,-5.0
O=C(COc1ccccc1C(=O)O)Nc1ccccc1F,1.4,3.0
O=C(O)c1ccc2c(c1)NC(=O)C1CCCN21 (configuration not stated),2.6,·
CC1(CCc2ccccc2)NC(=O)N(CN2CCN(c3ccccc3F)CC2)C1=O (configuration not stated),·,32.0
CCc1ccc(C2C3=C(CC(C)(C)CC3=O)OC3=C2C(=O)CC(C)(C)C3)cc1,7.0,·
CCn1c(=S)[nH]c2ccccc21,4.9,1.0
COc1ccc(C2CC(c3cccs3)=NN2C(=O)Cn2nnc(-c3cccnc3)n2)cc1OC (configuration not stated),·,-4.0
OCc1ccc(N2CCCC2)cc1F,·,5.0
O=C(O)c1nccnc1C(=O)OCCCc1ccncc1,·,-16.0
COc1ccc(C(=O)CN2C(=O)COc3ccccc32)cc1,-3.0,7.0
CCc1cccc(NC(=S)N(CCOC)C(C)c2ccco2)c1 (configuration not stated),·,2.0
CCc1ccc(NC(=O)NCCN2CCc3ccccc3C2)cc1,3.1,3.0
CCC(CO)NC(=O)/C=C/c1ccc(OC)c(OC)c1 (configuration not stated),-2.1,3.0
Cc1ccc(S(=O)(=O)n2nc(C)c(Sc3ncccn3)c2C)cc1,-0.7,·
CC(C)N(C(=O)c1ccc(-c2nnc(-c3ccccc3)o2)cc1)C(C)C,2.9,1.0
O=C(O)C1C(c2ccccc2)C(C(=O)N2CCCCC2)C1c1ccccc1 (configuration not stated),1.0,-3.0
O=C(CN1CCN(Cc2ccc(F)cc2Cl)C1=O)NCc1ccc(Cl)cc1,1.2,-10.0
CCOc1ccc(-c2c(C#N)c(N)nc3sc(C(=O)OC)c(N)c23)cc1,0.2,6.0
FC(F)(F)c1cc(-c2ccc3ccccc3c2)nc2cc(C3CC3)nn12,2.2,·
O=c1oc2ccc(Cl)cc2cc1-c1nnc(-c2cccc(Br)c2)o1,0.0,·
Nc1ccc(C2SCCS2)cc1,-0.6,·
COc1ccc(-c2nc3ccccc3o2)cc1NC(=S)NC(=O)CC(C)C,·,-39.0
Cc1cc(C)nc(NS(=O)(=O)c2ccc(NC(=O)CSc3nc4ccccc4s3)cc2)n1,2.8,·
# Following part.
SMILES,MgrA-DNA mod,Sa helicase inh
CCOC(=O)CNc1ccc(I)cc1,-2.9,·
CC(=O)N1CCc2cc(S(=O)(=O)CCC(=O)N3CCCc4ccccc43)ccc21,·,12.0
CSc1cccc(NC(=O)C2COc3ccccc3O2)c1 (configuration not stated),0.9,12.0
Cc1cc(C)c2nc(NC(=O)Cc3ccccc3)sc2c1,1.3,5.0
COc1cccc(N2C(=O)c3cccnc3C2O)c1 (configuration not stated),·,25.0
COc1ccc(O)c(C=NCCc2ccccc2)c1,·,-19.0
Cc1ccccc1Nc1nc(N)nc(Cn2cc(C(F)(F)F)ccc2=O)n1,·,-4.0
Cc1cc2occ(CC(=O)Nc3ccc(S(=O)(=O)C(F)F)cc3)c2cc1C,·,-8.0
Cc1ccc(S(=O)(=O)NC(=O)c2ccc(Cl)nc2Cl)cc1,-1.3,-23.0
C(=NN1CCN(C2c3ccccc3-c3ccccc32)CC1)c1cccs1,-0.8,6.0
Cc1nn(-c2ccc(Cl)cc2)c(N)c1C1(O)C(=O)N(C)c2ccccc21 (configuration not stated),0.1,-13.0
CC(C)(C)NC(=O)c1cccc2c1-c1ccccc1C2=O,·,29.0
